NPYLR7 agonist: agonists of mosquito NPYLR7 receptor, primary screen, cell-based, Aedes aegypti, calcium fluorescence, mosquito biting behavior | 270,000 tested, 0.15% active | HEK293T NPYLR7/Galpha15, GCaMP6s calcium fluorescence | activation, % at 10 µM | AID 1259423, 2018 | Aedes aegypti neuropeptide Y-like receptor 7 (NPYLR7); in the data active = activation above about 40%;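 also: 0% = vehicle and 100% = reference agonist at the receptor; some compounds past the cut are filed as inactive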
NPYLR7 agonist max-min: further read-out of NPYLR7 agonist, marked with its call; activation, %; measured here: Max-Min RFU normalised activation; some inactives read as strong as hits;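 span of the calcium signal over five minutes; 0% = vehicle and 100% = native peptide agonist; compound fluorescence can raise it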
* = called active by the depositor; & = joins results of further samples. This is a subset. The share of hits here may be higher or lower than overall.

SMILES	NPYLR7 agonist	NPYLR7 agonist max-min
CCc1cccc(NC(=O)N(CCOC)CC(=O)Nc2cc(C(C)(C)C)nn2-c2ccc(OC)cc2)c1	-11	-5
CC(C)c1noc(C2CCN(C(=O)C(C)n3ccnc3C(C)C)CC2)n1 (stereo not drawn)	10	8
CCCCCCCC(=O)N(CCOC)Cc1cccc(OS(C)(=O)=O)c1	17	14
CCOc1ccc(C(=O)NNC(=O)c2cn[nH]c2-c2ccc(F)cc2)cc1	25	18
CN(Cc1ccc(Cl)cc1Cl)C(=O)c1ccc(-n2cncn2)cc1	2	0
S=c1[nH]nc(COc2ccccc2)n1-c1ccccc1	-2	-9
O=[N+]([O-])c1ncccc1OCCOc1ccc(Br)cc1	10	11
O=C(c1ccc(F)cc1F)N1CCN(C(C(=O)N2CCc3ccccc3C2)C2CCCC2)CC1 (stereo not drawn)	-3	-2
Cc1nc(N2CCCCC2)ncc1C(=O)N1CCN2CCN(C)C(=O)C2C1 (stereo not drawn)	3	0
COc1cc(C=CC(=O)Nc2ccc3c(c2)OCCO3)cc(OC)c1	12	5
CC(C)C(NC(=O)c1cccc2nnnn12)c1nnc2n1CCNCC2 (stereo not drawn)	22	16
CN(C)C(=O)c1cc2c(s1)-c1ccccc1OC2	-9	-1
Cc1ccc(C(=O)N(C)CC(=O)NC(C)C)cc1C	-5	-6
COc1cccc(C(=O)NCC2CCCN(Cc3nc4ccccc4[nH]3)C2)c1OC (stereo not drawn)	3	2
COc1ccc(C(=O)N2C(C(=O)N3CCOCC3)COC23CCN(C(=O)Cc2ccccc2)CC3)cc1 (stereo not drawn)	3	3
CCN(CC)CCn1c(-c2ccc(C)cc2)nc(=S)c2c1CC(C)(C)OC2	5	0
Cc1cc(CNC(=O)C2COc3ccccc3O2)c2[nH]c(C)c(C)c2c1 (stereo not drawn)	-16	-17
O=S(=O)(N1CCCC1)N1CCc2ccc(Br)cc21	6	2
COc1cccc(C(=O)N(C)C)c1O	-1	-3
NCC1CCN(Cc2ccc(C(F)(F)F)cc2)C1 (stereo not drawn)	6	5
CCN(CC)c1ccc(N)cc1S(=O)(=O)Nc1ccc(OC)cc1	1	0
Cc1ccc(S(=O)(=O)NC(=O)C2(C)CCN2C(=O)c2ccccc2)nc1 (stereo not drawn)	1	-3
COCCNC(=O)c1cc2n(n1)CCN(CC(=O)c1ccccc1)C2=O	10	10
N#Cc1ccc(NCc2ccc(S(=O)(=O)NCC3CCCO3)cc2)nc1 (stereo not drawn)	4	3
Cc1nc2ccccc2nc1N1CCN(S(=O)(=O)c2ccc(Cl)cc2)CC1	7	0
O=C(Cc1cccs1)N1CCC(n2nc(-c3ccccc3)cc2-c2ccccc2)CC1	4	-1
O=C(NC1CCCCC1)c1cnn2c1NC(c1ccccc1)CC2C(F)(F)F (stereo not drawn)	-4	-9
N#Cc1ccc(-c2ccccc2)nc1SCC(=O)c1cccc(Cl)c1	4	-3
Cn1c(-c2ccncc2)nc2cc(C(=O)N3CCC(c4ccccc4)CC3)cc(NC(=O)C3CCC3)c21	3	-3
COc1ccccc1-c1ccc(N2CCN(Cc3cccc(C)c3)C(=O)C2)nn1	-5	-7
OCC1(CCOc2ccccc2)CCCNC1 (stereo not drawn)	-1	2
CCc1nc2ccc(C(=O)Nc3ccc(C(N)=O)cc3)cn2c1N(CC)CCN(C)C	-6	-11
CCOC(=O)N1CCC(NCCC(=O)N2CCCC(C)C2)CC1 (stereo not drawn)	5	-2
O=C(CCC(=O)N1CCc2ccccc2C1)N1CCC(n2c(=O)[nH]c3ccccc32)CC1	-1	-3
CCOC(=O)Cn1c(=O)c2c(nc3n2CCCN3c2ccc(C)c(C)c2)n(C)c1=O	3	4
O=c1cc(CSc2nnc(-c3ccncc3)n2C2CC2)nc2sccn12	3	9
Cc1cc(C(=O)N/N=C\c2cccs2)n[nH]1	-5	-8
CC(C)(CNC(=O)NCC1CN2CCCC2CO1)c1cccs1 (stereo not drawn)	5	3
O=C1NC(Cc2cscn2)c2nc(COc3ccccc3)ncc21 (stereo not drawn)	-8	-10
COCC(NC(=O)CCn1c(C)cc(C)nc1=O)c1ccccn1 (stereo not drawn)	15	6
CCCN(Cc1cc(N)ccc1N(C)C)C(=O)COC	-2	-7
CC(=O)c1c(C)oc2ccc(O)cc12	5	1
CC(C)CCC1(C2CCNCC2)NC(=O)NC1=O (stereo not drawn)	28	20
Cc1ccc(S(=O)(=O)N2CCN(c3ccccc3F)CC2)cc1	-2	-3
c1ccc(-c2cc(N3CCN(CCc4ccncc4)CC3)n3ncnc3n2)cc1	8	6
Cc1cc(C)n(C(C)CNC(=O)c2cc3n(n2)CCNC3)n1 (stereo not drawn)	-5	-9
Cc1ccc(C(CC(=O)N2CCN(C(c3ccccc3)c3ccccc3)CC2)c2cn(C)c3ccccc23)cc1 (stereo not drawn)	-2	5
O=C(NCCc1ccc(O)cc1)C1CC1(c1ccccc1)c1ccccc1 (stereo not drawn)	-7	-14
CCOC(=O)C1=C(COC(=O)c2cc3c(s2)CCCC3)NC(=O)NC1c1cccs1 (stereo not drawn)	-5	-11
COc1ccc(CCNC(=O)c2cc(-c3ccc(C)o3)nn2-c2ccc(C)cc2C)cc1OC	-2	7
Cc1ccc(Oc2ncccc2C(=O)N2CCC(n3c(=O)oc4c(C)cc(C)cc43)CC2)cc1	7	0
COc1ccc(C(C)=O)cc1CN1C(=O)C(C)ON=C1c1ccco1 (stereo not drawn)	7	3
Nc1nnc2cc(C(=O)c3cc(F)ccc3O)cnn12	-2	-2
Cc1nnc(CSc2cc(C(N)=O)c3ccccc3n2)o1	0	2
O=S1(=O)NC(c2ccccc2Cl)Nc2ccccc21 (stereo not drawn)	12	8
COc1cccc(C(=O)Nc2cc(-c3cccs3)nn2-c2nc(C)cc(=O)[nH]2)c1OC	0	-1
Cc1ccc(C)c(S(=O)(=O)N2CCN(C(=O)c3cn[nH]c3-c3ccc(F)cc3)CC2)c1	-5	-8
O=C(COC(=O)C1=COCCO1)Nc1cc2[nH]c(=O)[nH]c2cc1Br	2	5
C#CCNC(=O)Cc1ccc(NS(=O)(=O)c2cc(Cl)cc(Cl)c2)cc1	5	2
CC(C)C(=O)N1CCC(NC(=O)c2cc(F)cc3[nH]c(=S)[nH]c23)CC1	-11	-10
Additional entries:
SMILES	NPYLR7 agonist	NPYLR7 agonist max-min
CSc1ccc(NC(=O)N(CC(=O)Nc2cc(C(C)(C)C)nn2-c2cccc(C)c2)CC(C)C)cc1	16	11
O=C(C1=C(O)C(=O)N(CCCN2CCOCC2)C1c1ccc(Cl)cc1)c1ccco1 (stereo not drawn)	14	17
Fc1ccc(C2=Nc3nc(C(F)(F)F)nn3C(c3ccc4c(c3)OCO4)C2)cc1 (stereo not drawn)	-8	-10
Cc1ccc(C)c(-n2c(C)cn3c4c(=O)n(C)c(=O)n(C)c4nc23)c1	-8	-10
COc1ccc(CN(C(=O)Nc2cccc(C)c2C)C(C)C)cc1OS(C)(=O)=O	-7	-1
CCn1ccc(C(=O)Nc2nc(-c3ccccc3)c(-c3ccccc3)s2)n1	-10	-10
COc1ccc(-c2nn(-c3ccccc3)cc2C2=NN(S(C)(=O)=O)C(c3ccco3)C2)cc1 (stereo not drawn)	-6	-8
COc1c(/C=C2/SC(=S)N(CC(=O)O)C2=O)cccc1[N+](=O)[O-]	-8	-16
CCN(Cc1nccn1C)C(=O)c1ccc(N2CCC(C)CC2)nc1	12	5
CCN1C(=O)C2(CC(=O)N(CCCN(C)S(C)(=O)=O)C2=O)c2ccccc21 (stereo not drawn)	5	-9
CCc1ccc(-c2cc3c(=O)n(Cc4nc(-c5ccccc5C)oc4C)ccn3n2)cc1	10	7
Cc1ccc(C2CC2C(=O)NC2CCCC2C)s1 (stereo not drawn)	-8	432
CCCN(CC(=O)N(Cc1cccn1Cc1ccc(Br)cc1)C1CCCCC1)S(=O)(=O)c1ccc(Cl)c([N+](=O)[O-])c1	-18	-11
CN1CC(=O)N2CCN(C(=O)CCn3nnc4ccccc43)CC2C1=O (stereo not drawn)	8	5
COCCN=C1NN=C(c2ccc(C(C)(C)C)cc2)CS1	0	-4
Cc1cc(C)c(C#N)c(Nc2ccc(Cl)cc2)n1	-4	-6
COc1ccc(C(=O)N2CCCC(N(C)Cc3ccccc3)C2)cc1F (stereo not drawn)	-1&11	-4&5
Cc1ccc(Cc2nsc(N3CCN(C(=O)Nc4cccc(F)c4)C(C)C3)n2)cc1 (stereo not drawn)	6	6
O=S(=O)(NCc1ccccc1)NCc1cccnc1	8	6
Cc1ccccc1OCC(=O)N=Nc1c(O)[nH]c2c(Br)cc(Br)cc12	-2	-5
CCOC(=O)C1(C)CCN1C(=O)c1ccc(F)c(C)c1 (stereo not drawn)	0	-2
c1ccc2[nH]c(CSc3nc4ccccc4o3)nc2c1	7&1	2&1
O=C(Cn1nnnc1CN1CCCCCC1)N1CCOCC1	14	7
COc1ccc(C=NNc2nc(-c3cc4cc(Cl)ccc4oc3=O)cs2)cc1	-6	-11
COc1ccc(N2CCN(C(=O)c3cccnc3SCc3ccc(Br)cc3)CC2)cc1	5	5
Cc1cc(Cl)ccc1OC(C)C(=O)N1CC(C(N)=O)Oc2ccccc21 (stereo not drawn)	0	-2
CCC(CC)n1nc(C)cc1NC(=O)C(OC)c1ccccc1 (stereo not drawn)	2	2
CCS(=O)(=O)c1ccc2oc(-c3cccc(NC(=O)c4ccc(F)cc4)c3)nc2c1	21	21
Cc1ccc(C(=O)N2CCSC2c2cccc(Oc3ccccc3)c2)cc1 (stereo not drawn)	16	22
COCC1CCCN(C(=O)c2ccc(-c3ccc(CCC(=O)O)cc3)nc2)C1 (stereo not drawn)	11	2
CS(=O)c1nncn1Cc1cc(Br)ccc1F (stereo not drawn)	6	6
COc1cc(NCc2cccc(C)c2)cc(OC)c1	16	12
CCCN1CCC(Cc2noc([C@@H](N)Cc3ccccc3)n2)CC1	-3	8
COCCn1c(SCC(=O)Nc2ccccc2SCC(N)=O)nnc1-c1ccncc1	-4	-11
CC(C)[C@H](N)C(=O)OCC(CO)OCn1cnc2c(=O)[nH]c(N)nc21 (stereo partly drawn)	-2	2
COCCNC(=O)CN1CN(c2ccccc2)C2(CCN(C(=O)C3CCCCC3)CC2)C1=O	1	12
COCC(Nc1nc(-c2ccncc2)nc2c1CNC2)c1ccnn1C (stereo not drawn)	0	-2
Cc1cc(C(=O)Nc2cc(C(=O)N3CC(C)CC(C)C3)ccc2C)on1 (stereo not drawn)	-3	-3
CCN(CC)C(CNC1CCN(C)CC1)c1ccco1 (stereo not drawn)	-7	-8
CN1C(=O)CC(C(=O)Nc2cccc(Cl)c2)SC1=Nc1cccc(F)c1 (stereo not drawn)	2	0
CC1=NN(C(=O)CC#N)C(O)(c2ccc(F)cc2)C1 (stereo not drawn)	-1	-1
Cc1cnc(C(=O)Nc2cc(C(F)(F)F)ccc2N2CCOCC2)cn1	2	1
O=C(c1n[nH]c2c1CCCC2)N1CCN(c2cc(Cl)ncn2)CC1	2	-2
Cc1ccoc1C(=O)NCc1ccc(CS(=O)(=O)NC(C)C)cc1	3	0
CNC(=O)[C@H]1CN(C(=O)Nc2ccc3c(c2)OCO3)[C@]2(C)C(=O)N(CCOC)c3ccccc3[C@H]12	14	12
O=S(=O)(Nc1ccc(Br)cc1Br)c1ccc(Cl)s1	6	3
CNC(=O)c1nnc2n1C(c1ccccc1)CN(C(=O)c1ccc(F)c(C)c1)C2 (stereo not drawn)	1	0
O=c1cc(Nc2ccccc2)c2ccccc2s1	-7	-8
Cc1nccc(-c2ccccc2)c1C(=O)N1CCCC(Nc2ccccc2)C1 (stereo not drawn)	1	-4
COC(=O)c1cc(=O)c2c([N+](=O)[O-])ccc(OC)c2o1	-5	-5
O=C(Nc1nc(-c2c(F)cccc2F)cs1)c1ccc2c(c1)COC2	-5	-7
COc1ncc(CN2CCC(CNC(=O)NC(C)C)C2)cn1 (stereo not drawn)	0	0
COc1cc(/C=N\n2c(=O)c(C(C)(C)C)nn3cnnc23)ccc1OC(=O)c1ccccc1C	3	-2

From PubChem
